# Bioassay records: PubChem, National Center for Advancing Translational Sciences (NCATS)
# TDP1 cell CPT – qHTS for Inhibitors of human tyrosyl-DNA phosphodiesterase 1 (TDP1): qHTS in cells in presence of CPT. chicken DT40 Tdp1-/-;hTDP1 cells + 20 nM CPT, ATP luminescence, 48 h. Potency, µM (titrated, usually from 46.2 µM), for inactives: at the top dose activity change, negative = growth inhibition, hits mostly inhibitors. 420,000 tested, 12% active; also: nearly all actives have a fitted effect of over 55% in size
#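 Chicken DT40 Tdp1-/- cells complemented with human TDP1, 400 cells/well, exposed to compounds plus 20 nM camptothecin for at least 48 h at 37 C; viability read as ATP content by CellTiter-Glo luminescence.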
# N370S GC – qHTS Assay for Inhibitors and Activators of N370S glucocerebrosidase as a Potential Chaperone Treatment of Gaucher Disease. Potency, µM (series often up to 59.4 µM), inactives show top-dose activity change, negative = inhibition, hits mostly inhibitors. N370S GC spleen homogenate, 4MU-glucoside fluorescence. 330,000 tested, 0.092% active. Lysosomal acid glucosylceramidase (Homo sapiens), P04062. AID 2101, 2009;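 also: 0% = full enzyme activity and -100% = no enzyme basal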
# Numbers without * were called inactive; u = inconclusive; x = no result given; & = joins results of further samples. Calls follow the shape of the dose curve; as a rule, active = well fitted curve in the direction sought with a large enough effect; inconclusive = small, poorly fitted or top-dose-only effect, or another doubt; inactive = no such curve, though single readings can be large; an effect the other way counts as inactive or inconclusive. Unless noted, % is scaled to controls: 0 for no effect and ±100 for the full control effect; potency is read from the fitted curve at half-maximal effect.
SMILES,TDP1 cell CPT,N370S GC
COc1ccc(-c2cc(C)no2)cc1S(=O)(=O)N1CCN(C(=O)c2ccco2)CC1,-12.8%,7.0%
C/C(=N\NC(=O)c1cc(-c2ccncc2)nc2ccccc12)c1ccc(N2CCOCC2)cc1,u,-28.3%
CS(=O)(=O)N(Cc1ccc(C(=O)NCc2ccco2)cc1)c1ccccc1,5.5%,-19.2%
Cc1cccc(C(=O)Oc2ccccc2C(=O)N2CCOCC2)c1,-5.1%,1.6%
CC(=O)c1c(C)n([O-])c2cc(C)ccc2[n+]1=O,-23.7%,-3.3%
CCNC(=S)N(CCc1c(C)[nH]c2ccccc12)Cc1cccnc1,u,-16.0%
CC(=O)Nc1ccc2c(c1)C(=Nc1ccc(C)cc1)c1ccccc1-2,9.8%,x
O=c1[nH]c(SCc2ccccc2Cl)nc2c1CCC2,u,24.9%
COc1ccc(CNS(=O)(=O)c2cc3c(cc2Cl)NC(=O)CO3)cc1,-1.6%&-16.0%,0.6%
Cc1cccc(N2C(=O)c3ccccc3C2=O)n1,5.4%,1.2%
CC(=O)Nc1cccc(C(=O)Nc2ccccc2N2CCOCC2)c1,u,13.4%
O=C(N/C(=C\c1ccccc1Cl)C(=O)N1CCOCC1)c1ccc([N+](=O)[O-])cc1,0.4%,-9.2%
CC(C)(C)NC(=O)C(c1ccncc1)N(C(=O)c1csnn1)c1cccc2ccccc12 (stereo not given),7.0%,-2.7%
CN(C)C(CNc1ccc(C(F)(F)F)cn1)c1ccccc1 (stereo not given),u,-6.4%
Cc1ccc(NC(=O)CSc2nnc(-c3cnccn3)n2C)cc1C,-7.7%,1.1%
CCC(NC(=O)Nn1cnnc1)(C(F)(F)F)C(F)(F)F,8.0%,-1.7%
O=C(CSc1nc(-c2ccc(F)cc2)cs1)NC(=O)NCc1ccco1,-16.5%,4.5%
Cc1ccc(S(=O)(=O)NC(CC(C)C)C(=O)Nc2nccs2)cc1 (stereo not given),-3.7%,0.3%
COC(=O)c1ccc(NC(=O)Cn2c(-c3nonc3N)nc3ccccc32)cc1,u,6.8%
O=C(Nc1ccccn1)c1cc2ccccc2cc1O,-22.4%,2.3%
O=C(CSc1nnc(SCc2ccc(F)cc2)s1)Nc1ccc(C(=O)O)cc1,-15.4%,6.1%
CCn1cc(C(=O)N2CCCC(N3CCN(c4ccccc4C)CC3)C2)cn1 (stereo not given),-22.0%,-5.8%
CCN1CCN(C(=S)c2ccc([N+](=O)[O-])cc2)CC1,0.4%,-1.3%
CCc1ccc2nc3n[nH]c(N)c3cc2c1,-0.5%,-0.5%
COc1ccc(C(CNC(=O)c2ccccc2SC)N(C)C)cc1 (stereo not given),-3.3%,-4.2%
Cc1ccc(OCCC(=O)Nc2ccccc2C(=O)N2CCCCC2)cc1,0.8%,-6.3%
CCOc1ccc(/C=C/C(=O)NCCc2ccc(OC)c(OC)c2)cc1,u,-10.2%
CC(NC(=O)CSc1ccccc1)c1ccccc1 (stereo not given),-0.6%,-2.3%
COc1cccc(C(C(=O)NC(C)(C)C)N(CCc2ccccc2)C(=O)CCC(=O)Nc2cc(C)on2)c1OC (stereo not given),u,-6.3%
O=C(Cn1cnc([N+](=O)[O-])n1)c1ccc(O)c(O)c1,-15.6%,-2.8%
CCc1ccc(OCC(=O)NNC(=O)CSc2nnc(-c3ccc(C)cc3)n2C)cc1,-17.7%,6.9%
N#Cc1c(NC(=O)c2ccc(-c3ccccc3[N+](=O)[O-])o2)sc2c1CCCC2,-28.7%,-15.6%
Cc1cc2[nH]ncc2cc1NC(N)=S,0.2%,0.6%
CC(C)CCNC(=O)CCCCn1c(=O)[nH]c2ccsc2c1=O,-19.8%,-0.1%
O=C(NC(NCCCN1CCOCC1)(C(F)(F)F)C(F)(F)F)C1CCCCC1,12.9%,2.9%
Cc1ccc(NC(=O)CSc2nnnn2-c2cccnc2)c(C)c1,-1.2%,-6.0%
Cc1ccc(/C=N/NC(=O)c2c[nH]c3ccccc23)s1,-22.1%,10.4%
COc1cccc2[nH]c3c(N4CCC(C)CC4)ncnc3c12,25.9µM*,2.9%
CCOC(=O)c1ccc(-n2c(C)nc3ccc(Br)cc3c2=O)cc1,u,-1.7%
CCOC(=O)/C(C#N)=C1/C=CN(C)C=N1,-8.2%,u
CCOc1cnc(-c2ccc(Cl)cc2)o1,-21.1%,4.8%
Cc1cc(NC(=O)CSc2nnc(C3CC3)n2N)no1,-3.7%,3.5%
CSCCC(NS(=O)(=O)c1ccccc1F)C(=O)NC(C)c1ccccc1 (stereo not given),12.7%,-24.9%
COC(=O)c1c(C(=O)OC)c(-c2ccccc2)n2c1CS(=O)(=O)C2,-11.4%,1.6%
COC(=O)c1[nH]c2c(c1C)C(=O)CC(c1ccc(OC)c(OC)c1)C2 (stereo not given),u,-4.1%
N#Cc1ccc(C(=O)NCC(c2ccco2)N2CCCC2)cc1 (stereo not given),-5.7%,6.3%
Cc1ccc(NC(=O)O/N=C/c2ccc(F)cc2)cc1,23.5%,-1.5%
CCOC(=S)N/C(=N\S(=O)(=O)c1ccccc1)c1ccccc1,-20.9%,1.1%
Cc1cc(CNC(=O)c2ccc3oc(C(C)C)nc3c2)nn1C,-9.6%,-1.2%
CCN(CC(=O)Nc1ccc(NC(C)=O)cc1)C(=O)c1sc2nc3n(c(=O)c2c1C)CCC3,-0.7%,x

# 22 successive records from above, for reference:
SMILES,TDP1 cell CPT,N370S GC
COc1cccc(C(C(=O)NC(C)(C)C)N(CCc2ccccc2)C(=O)CCC(=O)Nc2cc(C)on2)c1OC (stereo not given),u,-6.3%
O=C(Cn1cnc([N+](=O)[O-])n1)c1ccc(O)c(O)c1,-15.6%,-2.8%
CCc1ccc(OCC(=O)NNC(=O)CSc2nnc(-c3ccc(C)cc3)n2C)cc1,-17.7%,6.9%
N#Cc1c(NC(=O)c2ccc(-c3ccccc3[N+](=O)[O-])o2)sc2c1CCCC2,-28.7%,-15.6%
Cc1cc2[nH]ncc2cc1NC(N)=S,0.2%,0.6%
CC(C)CCNC(=O)CCCCn1c(=O)[nH]c2ccsc2c1=O,-19.8%,-0.1%
O=C(NC(NCCCN1CCOCC1)(C(F)(F)F)C(F)(F)F)C1CCCCC1,12.9%,2.9%
Cc1ccc(NC(=O)CSc2nnnn2-c2cccnc2)c(C)c1,-1.2%,-6.0%
Cc1ccc(/C=N/NC(=O)c2c[nH]c3ccccc23)s1,-22.1%,10.4%
COc1cccc2[nH]c3c(N4CCC(C)CC4)ncnc3c12,25.9µM*,2.9%
CCOC(=O)c1ccc(-n2c(C)nc3ccc(Br)cc3c2=O)cc1,u,-1.7%
CCOC(=O)/C(C#N)=C1/C=CN(C)C=N1,-8.2%,u
CCOc1cnc(-c2ccc(Cl)cc2)o1,-21.1%,4.8%
Cc1cc(NC(=O)CSc2nnc(C3CC3)n2N)no1,-3.7%,3.5%
CSCCC(NS(=O)(=O)c1ccccc1F)C(=O)NC(C)c1ccccc1 (stereo not given),12.7%,-24.9%
COC(=O)c1c(C(=O)OC)c(-c2ccccc2)n2c1CS(=O)(=O)C2,-11.4%,1.6%
COC(=O)c1[nH]c2c(c1C)C(=O)CC(c1ccc(OC)c(OC)c1)C2 (stereo not given),u,-4.1%
N#Cc1ccc(C(=O)NCC(c2ccco2)N2CCCC2)cc1 (stereo not given),-5.7%,6.3%
Cc1ccc(NC(=O)O/N=C/c2ccc(F)cc2)cc1,23.5%,-1.5%
CCOC(=S)N/C(=N\S(=O)(=O)c1ccccc1)c1ccccc1,-20.9%,1.1%
Cc1cc(CNC(=O)c2ccc3oc(C(C)C)nc3c2)nn1C,-9.6%,-1.2%
CCN(CC(=O)Nc1ccc(NC(C)=O)cc1)C(=O)c1sc2nc3n(c(=O)c2c1C)CCC3,-0.7%,x

# Next part:
SMILES,TDP1 cell CPT,N370S GC
NS(=O)(=O)c1ccc(NC(=S)N2CCC(Cc3ccccc3)CC2)cc1,10.9%,-23.9%
O=C(c1noc2c1CCCC2)N1CCN(c2ccc(F)cc2)CC1,u,7.0%
CC(=O)Nc1cccc(NC(=O)CSc2nnc(NC(=O)C3CC3)s2)c1,-2.1%,-11.0%
CC(=O)c1ccc(NC(=O)C2CCN(S(=O)(=O)c3cccnc3)CC2)cc1,7.2%,-3.8%
Cc1csc2c(N3CCN(C(=O)Nc4ccc(Cl)c(Cl)c4)CC3)ncnc12,u,-5.3%
CCc1ccc(-n2c(O)c(C=NCCN(CC)CC)c(=O)[nH]c2=O)cc1,-16.5%,19.0%
CSc1nnc(-c2cnccn2)n1Cc1ccccc1,-2.6%,1.7%
NC(=O)c1nsc(C(=O)N(c2ccccc2)C(C(=O)NC2CCCC2)c2ccncc2)c1N (stereo not given),-18.7%,10.9%
C=C(C)c1cccc(C(C)(C)NC(=O)N2CCN(c3ccccn3)CC2)c1,-2.1%,0.2%
N#Cc1ccccc1Sc1ccccc1C(=O)OCC(=O)NC1CCCCC1,-24.1%,16.4%
CCN(CC)C(=O)c1cc(-c2ccc(Br)cc2)on1,-1.0%,2.1%
CCOC(=O)N1CCC(N2Cc3cccc(C(=O)N4CC(C)CC(C)C4)c3C2=O)CC1 (stereo not given),7.6%,16.2%
COc1cc(NC(=O)CSc2nc(=O)n(CCN3CCOCC3)c3c2CCC3)cc(OC)c1,0.7%,-6.5%
Cc1nc(N)nc(C)c1Cc1ccccc1,-7.2%,-13.4%
OCCC1CN(Cc2cnc(-c3ccccc3)s2)CCN1Cc1ccccc1 (stereo not given),-0.3%,-9.1%
Cc1cc(C)n2nc(SCc3nnc(SCc4ccccc4)s3)nc2n1,u,2.5%
COc1ccc(Cc2nnc(NC(=O)c3ccco3)s2)cc1,-2.2%,9.9%
CN(c1ccccc1C(=O)Nc1ccccc1-c1ccccc1)S(C)(=O)=O,2.0%,-10.5%
Cc1ccc(C)c(OCC(=O)Nc2ccc3c(c2)OCO3)c1,u,9.6%
COc1cc(N/N=C(\C)c2ccc(N)cc2)nc(-c2ccccc2)n1,23.1µM*,-12.1%
CCCN(CC(=O)Nc1ccccc1C)C(=O)c1ccc(COc2ccccc2)cc1,23.1µM*,-6.6%
CC(=O)c1cccc(NC(=O)C(=O)c2cn(CC(=O)N3CCCCC3)c3ccccc23)c1,25.9µM*,-22.6%
COC(=O)c1ccccc1NC(=O)N1CSC[C@H]1C(=O)OC,-10.7%,5.7%
C/C(=N\n1cnnc1)c1ccccc1,1.1%,15.6%
CCOC(=O)C1=C(COC(=O)C2(C)CC2(Cl)Cl)NC(=O)NC1c1ccc(OC)cc1 (stereo not given),u,15.1%
Cc1cc(C)c2sc(N(CCN(C)C)C(=O)c3c(F)cccc3F)nc2c1,-29.0%,u
CC(C)(CN1CCOCC1)NS(=O)(=O)c1ccccc1,-11.3%,-0.4%
CC(C(=O)NC1CCCC1)N(C(=O)CS(=O)CC(=O)Nc1ccc(F)cc1)c1ccc2c(c1)OCCO2 (stereo not given),-3.3%,5.5%
O=C(O)c1cccc(N2C(=O)Nc3ccccc3N2O)c1,0.4%,0.7%
COCCn1c(C)cc(/C=N/NC(=O)c2cccnc2)c1C,0.1%,-4.5%

# Random excerpt: three records from the list.
SMILES,TDP1 cell CPT,N370S GC
Cc1cc(CNC(=O)c2ccc3oc(C(C)C)nc3c2)nn1C,-9.6%,-1.2%
CCc1ccc(OCC(=O)NNC(=O)CSc2nnc(-c3ccc(C)cc3)n2C)cc1,-17.7%,6.9%
CCOC(=O)c1ccc(-n2c(C)nc3ccc(Br)cc3c2=O)cc1,u,-1.7%

# (further entries)
SMILES,TDP1 cell CPT,N370S GC
O=C1CS/C(=N/N=C/c2ccccc2)N1Cc1ccco1,-25.4%,17.3%
Cn1c(=O)[nH]c(=O)c2c1nc(NCc1ccco1)n2Cc1ccccc1Cl,2.1%,20.3%
O=C(Nc1ccc([N+](=O)[O-])cn1)C1CC2CCC1C2 (stereo not given),-10.3%,-8.0%
COc1ccc(C(=O)NCc2nnc(SCC(=O)NCCc3ccccc3)o2)cc1,-1.9%,-1.3%
O=C(Nc1sc2c(c1C(=O)O)CCC2)c1ccc(F)cc1,0.0%,1.4%
CCOC(=O)C1(CC2CC2)CCN(C(=O)c2cccnc2C)CC1,-20.8%,18.2%
CSCc1ccc(C(=O)N2CCC(CCC(=O)N(C)Cc3ccccc3)CC2)o1,u,-6.0%
COc1ccc(S(=O)(=O)N2CCCCCC2)cc1C(=O)N(C)Cc1ccc(C)cc1,u,-1.2%
Cc1cc(NC(=O)COc2ccc3oc4ccccc4c3c2)no1,u,4.3%
COc1ccc(OC)c(NC(=O)c2cccc(C)c2[N+](=O)[O-])c1,u,-16.9%
CCN(CC)S(=O)(=O)c1cccc(-c2nnc(SCCCC(=O)c3ccccc3)o2)c1,u,4.2%
CC(=O)/C(=N\Nc1ccccc1)Sc1nncn1C,-11.6%,-2.5%

# An excerpt; most or all hits stand in other tables.
